GLA inh pH 4.5 – alpha-galactosidase A (human) inhibition, pH 4.5; P06280; purified enzyme, 4-MU-alpha-Gal fluorescence, pH 4.5; activity change, negative = inhibition, % at 105 µM; 230,000 tested, under 10 active; inconclusive = small, poorly fitted or top-dose-only inhibition, or a rising curve; inactive = flat fitted curve, though single readings scatter; no compound was filed as active;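 note: 0% = full activity with enzyme and -100% = basal without enzyme; dose as in the result columns while the protocol names 77 µM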
Rango dissoc inh – inhibitors of RanGTP-induced Rango-importin beta complex dissociation; 340,000 tested, 0.071% active; O95149+P62826; Potency, µM (top dose mostly 46.1 µM), inactives show at the top dose activity change, negative = inhibition; AID 540253; Biochemical FRET Rango-importin beta, RanGTP-induced dissociation; active means falling FRET ratio curve, often poorly fitted, with flat reads before Ran was added; inconclusive means other falling curves, or compound fluorescence or quenching; inactive means flat or rising ratio curve;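 note: potency is the fitted concentration of half-maximal effect; % of control where 0% means no effect; nearly all actives have a fitted effect of over 45% in size; -100% = wells without RanGTP and RCC1; the record marks most hits as doubtful in a second field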
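Recombinant Rango FRET biosensor (EYFP–snurportin 1 IBB–cerulean CFP10) at 0.1 uM premixed with 0.25 uM importin beta in PBS, 1 mM DTT, 0.02% Tween-20, 0.1% BSA. Compound added 5 min; RanGTP-RCC1 (0.6 uM Ran, 2 mM GTP, 0.2 uM RCC1) then triggers release, read at 45 min.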
Rango complex inh – Rango-importin beta binding inhibition; 340,000 tested, 0.031% active; Q14974; Rango CFP/YFP FRET sensor + importin beta, 45 min; Potency, µM (highest dose often 92.2 µM), inactives show at the highest dose inhibition of complex formation; active = rising FRET ratio curve, often small or poorly fitted; inconclusive = mostly compound fluorescence or quenching in the first reads; inactive = flat curves in all reads;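 note: potency is the fitted concentration of half-maximal effect; 0% = DMSO wells and 100% = buffer wells lacking importin beta; nearly all actives have a fitted effect of over 15% in size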
Target sequence (Q14974 whole entry, looked up): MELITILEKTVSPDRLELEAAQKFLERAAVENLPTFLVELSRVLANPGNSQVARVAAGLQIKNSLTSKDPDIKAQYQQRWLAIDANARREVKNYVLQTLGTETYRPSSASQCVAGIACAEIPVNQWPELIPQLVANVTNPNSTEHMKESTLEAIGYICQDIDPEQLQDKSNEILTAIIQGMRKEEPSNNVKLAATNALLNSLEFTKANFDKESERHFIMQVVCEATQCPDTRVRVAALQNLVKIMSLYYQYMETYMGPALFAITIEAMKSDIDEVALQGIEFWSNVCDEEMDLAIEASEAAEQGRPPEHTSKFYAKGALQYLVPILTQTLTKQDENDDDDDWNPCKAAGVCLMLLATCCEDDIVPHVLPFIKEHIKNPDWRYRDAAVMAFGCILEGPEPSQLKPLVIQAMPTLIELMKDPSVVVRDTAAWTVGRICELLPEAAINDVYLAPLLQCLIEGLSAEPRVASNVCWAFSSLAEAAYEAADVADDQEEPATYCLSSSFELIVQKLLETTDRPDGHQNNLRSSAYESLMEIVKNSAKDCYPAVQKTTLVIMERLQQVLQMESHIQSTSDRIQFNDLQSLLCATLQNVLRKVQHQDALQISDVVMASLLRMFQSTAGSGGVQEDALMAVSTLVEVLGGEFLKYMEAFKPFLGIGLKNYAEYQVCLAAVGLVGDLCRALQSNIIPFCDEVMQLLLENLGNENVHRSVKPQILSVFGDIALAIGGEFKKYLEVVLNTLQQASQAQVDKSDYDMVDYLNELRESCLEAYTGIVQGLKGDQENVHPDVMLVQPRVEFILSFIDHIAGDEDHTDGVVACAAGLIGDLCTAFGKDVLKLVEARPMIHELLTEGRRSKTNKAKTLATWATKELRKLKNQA
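Inhibition scored from the CFP 486 nm/YFP 530 nm FRET ratio 45 min after adding 0.125 microM importin beta to 50 nM Rango biosensor preincubated 5 min with compound (room temperature, PBS with DTT, Tween-20, BSA). No-importin wells as positive control.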
miR-21 reporter – miR-21 reporter, rising signal. HeLa miR-21 FLuc reporter, luciferase, 48 h. Potency, µM (titrated, usually from 38.3 µM), for inactives: at the highest dose reporter change, positive = more light. 340,000 tested, under 10 active. AID 2288; active = well fitted rising curve with a large enough effect; inconclusive = small, poorly fitted or top-dose-only effect; inactive = no such curve, though single readings can be large or run the other way;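 note: % of control where 0% means no effect; miR-21 action dims this reporter so a rising signal means less miR-21 action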
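HeLa miR-21-FLuc reporter line, endogenous miR-21; 2000 cells/well in DMEM/10% FBS; compound titration up to ~40uM final, 48 h, 37 degree Celsius; luciferase detection reagent, 15 min lysis, CCD luminescence.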
* marks the source's active call; other numbers are inactive results; ? = inconclusive; · = no result given. Only part of the results is shown (hit frequency here may not be typical).

GLA inh pH 4.5	Rango dissoc inh	Rango complex inh	miR-21 reporter	smiles
·	-7%	0.1%	·	CCCCn1c(N)c(N(CCOC)C(=O)C2CC(=O)N(Cc3ccc(C)cc3)C2)c(=O)[nH]c1=O (stereo unspecified)
-3	-15%	0.3%	-4%	Cc1cc(C(=O)NC(C)Cc2ccccc2)cc(C)c1[N+](=O)[O-] (stereo unspecified)
-4	13%	-1.4%	9%	C=CCN1C(=O)C(CC(=O)Nc2ccc(OC)cc2)N(Cc2ccco2)C1=S (stereo unspecified)
·	13%	5.2%	-2%	COc1ccc(CNC(=O)CCCC(=O)n2nc(C)c3ccccc32)cc1
-11	-3%	-1.3%	-7%	Nc1nc(CN2CCN(c3ccccc3F)CC2)nc(N2CCCc3ccccc32)n1
·	?	-0.1%	13%	CC(=O)Nc1ccc(S(=O)(=O)N2CCC(C(=O)NCCc3ccc(Cl)cc3)CC2)cc1
2	18%	3.1%	30%	Cc1cccc(N2C(=O)C(Oc3ccc(Cl)cc3Cl)C2C=O)c1C (stereo unspecified)
·	-2%	-2.4%	·	CC(C)CN(C(=O)C(C)N1C(=O)c2ccccc2C1=O)c1c(N)n(Cc2ccccc2)c(=O)[nH]c1=O (stereo unspecified)
2	3%	?	-16%	CCN(CC)C(=O)c1cc2c(=O)c3cc(Cl)ccc3oc2nc1C
-1	-14%	-5.2%	-9%	O=C(NC1CCCCC1)N1CCN(C(=O)c2ccco2)CC1
5	-19%	-2.3%	-10%	CC1CN(Cc2nc3c(c(=O)[nH]c(=O)n3C)n2CCCc2ccccc2)CC(C)O1 (stereo unspecified)
7	1%	2.4%	-11%	CCOC(=O)c1ccc(NC(=O)c2n[nH]c(=O)c3ccccc23)cc1
·	-9%	-2.3%	·	COc1cc(NC(=O)CSc2nc(=O)n(CCN3CCOCC3)c3c2CCCC3)cc(OC)c1
-1	-15%	0.0%	-1%	O=C(NNc1ccc(F)cc1)c1c(F)cccc1Cl
·	-9%	-3.3%	·	COCCNc1nnc(SCC(=O)NC(=O)c2ccc(Cl)cc2)s1

Just GLA inh pH 4.5, Rango complex inh and Rango dissoc inh, for some of the entries so far:
smiles	GLA inh pH 4.5	Rango complex inh	Rango dissoc inh
Cc1cc(C(=O)NC(C)Cc2ccccc2)cc(C)c1[N+](=O)[O-] (stereo unspecified)	-3	0.3%	-15%
COc1cc(NC(=O)CSc2nc(=O)n(CCN3CCOCC3)c3c2CCCC3)cc(OC)c1	·	-2.3%	-9%
CCOC(=O)c1ccc(NC(=O)c2n[nH]c(=O)c3ccccc23)cc1	7	2.4%	1%
COc1ccc(CNC(=O)CCCC(=O)n2nc(C)c3ccccc32)cc1	·	5.2%	13%

(listing goes on)
GLA inh pH 4.5	Rango dissoc inh	Rango complex inh	miR-21 reporter	smiles
-6	-2%	3.6%	-2%	CCOC(=O)c1cccc(NC(=O)CSc2nnc(COc3ccccc3)n2CC)c1
7	3%	-0.3%	-3%	COc1ccc(N2CCN(c3nc(=S)n(-c4ccccc4)c(C)c3C(C)=O)CC2)cc1
-12	-16%	-2.3%	5%	COc1ccc(Br)cc1/C=N/NC(=O)Cn1nnnc1N
6	-7%	1.5%	-49%	O=C(Nc1ccc2ccccc2c1)c1cccc(F)c1
·	3%	2.2%	2%	COc1ccc(N(CC(=O)N/N=C/c2ccc(C(=O)O)cc2)S(=O)(=O)c2ccc(NC(C)=O)cc2)cc1
·	-7%	?	24%	COc1ccccc1C(=O)NNC(=O)c1cccc(O)c1
·	-2%	-2.8%	-3%	COc1ccc(S(=O)(=O)N2CCN(C(=O)C3CCCO3)CC2)cc1 (stereo unspecified)
·	8%	2.8%	·	CC(Sc1n[nH]c(-c2cccs2)n1)C(=O)N1CCCC1 (stereo unspecified)
7	-1%	0.2%	-29%	COc1ccc2nc(N3CCCC3)[nH]c2c1
6	-4%	4.2%	1%	Cc1ccc(S(=O)(=O)NCC(=O)N(CC(=O)NC(C)(C)C)Cc2cccs2)cc1
2	0%	-2.1%	0%	CSc1oc(-c2cccs2)nc1S(=O)(=O)c1ccccc1
-2	7%	2.9%	-10%	Cc1ccc(C)c(Nc2ncccc2C(=O)NCc2cccs2)c1
3	-15%	-1.9%	-2%	CCn1c(NC(=O)c2cccs2)c(-c2cccs2)c(=O)c2ccccc21
·	-1%	0.5%	-4%	CCc1ccc(CNC(=O)c2ccc(OC3CCN(C(C)=O)CC3)c(OC)c2)nc1
·	2%	3.1%	·	Brc1cc2c(cc1C1OCCO1)OCO2

Later entries
GLA inh pH 4.5	Rango dissoc inh	Rango complex inh	miR-21 reporter	smiles
·	3%	1.0%	-2%	CCOC(=O)C1CCN(C(=O)CCc2nnc3ccc(N4CCC(C)CC4)nn23)CC1
-15	1%	-1.4%	2%	CCOC(=O)N1CCC(N(CCOC)C(=O)Nc2ccc(Cl)c(Cl)c2)CC1
-8	-8%	2.4%	-10%	Cc1cc2nnc(SC(C)C#N)n2c2ccccc12 (stereo unspecified)
3	-3%	-1.7%	-6%	CCn1c(-c2csc(-c3ccc(Cl)cc3)n2)n[nH]c1=S
9	-4%	1.4%	3%	Cc1c(NC(=O)CN2C(=O)NC3(CCC(C)CC3)C2=O)c(=O)n(-c2ccccc2)n1C (stereo unspecified)
10	-4%	-1.1%	-1%	Cc1cc(C)nc(SCC(=O)Nc2cc(C)on2)n1
-4	6%	2.9%	0%	CN(C)S(=O)(=O)c1ccc(Cl)c(NC(=O)COC(=O)C2CSC3(C)CCC(=O)N23)c1 (stereo unspecified)
3	·	·	-4%	O=C(CCCCC(=O)N1CCN(c2ccccc2)CC1)N1CCN(c2ccccc2)CC1
-1	-3%	-1.5%	-21%	CC1(C)Cc2c(c(-c3ccco3)nc3sc4c(NCCCO)ncnc4c23)CO1
·	-5%	-1.5%	-5%	CCOC(=O)N1CCN(S(=O)(=O)c2ccc(OC)c(Br)c2)CC1
0	9%	-1.6%	-44%	COc1ccccc1CSc1nc2ccccc2[nH]1
·	?	?	2%	COc1ccc(N/C=C/C(=O)c2cc(OC)c(OC)c(OC)c2)cc1
5	12%	0.6%	1%	CCN(CC)C(=O)C1CCCN(C(=O)Nc2ccccc2)C1 (stereo unspecified)
-1	12%	0.3%	5%	S=C(c1c[nH]c2ccc(Br)cc12)N1CCOCC1
-8	-2%	0.3%	1%	CC(=O)c1ccc(NC2=C(N3CCOCC3)C(=O)c3ccccc3C2=O)cc1

Further results:
GLA inh pH 4.5	Rango dissoc inh	Rango complex inh	miR-21 reporter	smiles
-11	22%	-4.0%	3%	Cc1ccc(S(=O)(=O)CCSc2cccc(C(=O)Nc3ccccc3C(=O)O)c2)cc1
-4	14%	-2.0%	-1%	CCc1ccccc1N1C(=O)C2CC(C)=C(C)CC2C1=O (stereo unspecified)
-21	-3%	-1.0%	-13%	COc1ccc(C)cc1NC(=O)c1ccc(N(C)S(C)(=O)=O)cc1
·	0%	-3.6%	1%	O=C(Cn1cccc1C(=O)c1ccccc1)NCCc1ccccc1
-1	-3%	2.3%	-4%	COc1ccc(NC(=O)C2CCN(S(=O)(=O)c3ccc(OC)c(OC)c3)CC2)c(OC)c1
·	11%	-0.2%	·	O=C(OCC(=O)N1CCCCC1)c1n[nH]c(=O)c2ccccc12
-3	-13%	-1.1%	-2%	O=C(Nc1ccccc1-c1ccccc1)C1CCCC1
·	2%	-1.1%	5%	COc1cc2[nH]c(C(=O)N(C)C3CCS(=O)(=O)C3)cc2c(OC)c1OC (stereo unspecified)
·	16%	0.3%	-4%	COc1cc(/C=C/C(=O)O)cc(S(=O)(=O)Nc2ccc3c(c2)CCC3)c1OC
·	24%	0.6%	1%	COC(=O)CCc1c(C)c(C(=O)c2cccc(OC)c2OC)c2ccccn12
·	24%	?	·	O=C(COC(=O)c1cc[n+]([O-])cc1)Nc1ccc(Br)cc1
-6	-10%	-0.6%	-2%	C[C@H](Nc1ccc(C(F)(F)F)cc1[N+](=O)[O-])C(=O)O
·	?	?	·	Cn1c(=O)c2[nH]c(CCc3ccncc3)nc2n(C)c1=O
·	8%	-0.5%	·	N#Cc1ccc(C(=O)OCC(=O)N2CCCCCC2)cc1
1	8%	-1.3%	3%	O=C(Oc1csc(=S)n1C(=O)c1ccccc1)c1ccccc1

Next part:
GLA inh pH 4.5	Rango dissoc inh	Rango complex inh	miR-21 reporter	smiles
4	?	?	-49%	CCOC(=O)C1=C(CSc2nc(-c3ccccc3)ccc2C#N)OC(N)=C(C#N)C1c1ccccc1 (stereo unspecified)
-6	-16%	-0.2%	-4%	O=C(Nc1ccc2ccccc2n1)Nc1cccs1
-1	2%	-2.0%	-61%	COC(=O)c1sc(NC(=O)COc2ccccc2)nc1C
3	0%	-1.2%	-8%	Cc1cc2c(cc1C)NC(=O)CC(C(F)(F)C(F)(F)C(F)(F)F)=N2
·	19%	0.5%	·	C=C1CCN([C@@H](CC(C)C)C(=O)NN2CCOCC2)S(=O)(=O)c2ccccc21
4	-2%	-4.0%	-28%	CCCOc1ccc(OCCSc2nnc(N)s2)cc1
1	26%	-1.2%	0%	CC(O)[C@H]1CNC(=O)C(=O)N1CC(C)(C)C (stereo partly specified)
·	-16%	?	·	CN(CC(=O)Nc1c(Cl)cccc1Cl)C(=O)CCc1nc2sc3c(c2c(=O)[nH]1)CCCC3
·	3%	1.1%	·	CC(C)(C)CN1C(N)=NC[C@@H]1Cc1ccccc1
-2	-3%	-1.0%	-40%	CCOc1ccc(-c2cc(C(=O)NCCCN3CCN(CC)CC3)c3ccccc3n2)cc1
0	20%	-2.3%	1%	S=C1NCN(Cc2cccnc2)CN1c1cccc(Cl)c1
6	2%	-0.7%	-3%	CCOC(=O)c1ccc(-n2c(CN3CCN(CC)CC3)nc3ccc([N+](=O)[O-])cc3c2=O)cc1
·	1%	-3.3%	·	O=C(NCC(=O)N1CCN(C/C=C/c2ccccc2)CC1)c1ccc(Br)cc1
·	?	?	-10%	CCN=C1S/C(=C/c2ccc(-c3ccc(Cl)cc3C(=O)O)o2)C(=O)N1CC
-3	-4%	-0.7%	0%	Cc1cc2oc(=O)cc(CN3CCc4ccccc43)c2cc1Cl

Going on with the list.
GLA inh pH 4.5	Rango dissoc inh	Rango complex inh	miR-21 reporter	smiles
·	22%	0.5%	·	COc1ccccc1C(=O)NCCC(=O)Nc1ccncc1
6	-5%	?	-15%	COC(=O)c1ccc(C(=O)OC)c(NC(=S)N2CCC(C)CC2)c1
·	3%	-0.4%	-39%	COc1cc(C(=O)N/N=C(\C)c2ccc(NC(=O)Cc3ccccc3)cc2)ccc1O
4	-9%	-0.4%	·	CNC(=O)[C@@]1(Cc2ccccc2)C=C[C@@H](C)N1C(C)=O
·	0%	2.7%	-73%	O=C(NC1CCCCC1)c1cc(-c2ccccc2O)on1
2	9%	-0.3%	-47%	O=C(Nc1ccc(N2CCCC2=O)cc1)c1cccc(F)c1
·	6%	1.5%	-5%	CCCn1nnnc1NCc1ccccc1Cl
·	-9%	-2.6%	·	CCN(c1ccc(NC(=O)COC(=O)C2CCN(c3ccc(C(F)(F)F)cn3)CC2)cc1)C(C)C
-8	·	·	3%	CCOc1cc(NC(=O)C2CC2)c(OCC)cc1NC(=O)c1cccnc1
8	-9%	-3.6%	-2%	CC1CCc2c(sc3ncn(CC(=O)N4CCCCC4)c(=O)c23)C1 (stereo unspecified)
0	-2%	-0.8%	-15%	O=C(COc1ccccc1Cl)NCCC1=CCCCC1
·	-7%	-0.3%	1%	Cc1c(CC(=O)NCC(=O)NCC(=O)O)c(=O)oc2cc3c(cc12)CCC(C)(C)O3
8	0%	-1.8%	-6%	CC(NC(=O)/C(C#N)=C/c1cn[nH]c1-c1ccccc1)c1ccccc1 (stereo unspecified)
-1	1%	-1.9%	-2%	C/C(=C\C(=O)c1cccnc1)Nc1ccc(C(=O)O)cc1
-3	0%	0.1%	-13%	CCCCOC(=O)c1nnc(-c2ccc(Cl)cc2)o1
